# Bioassay records: PubChem, several laboratories
# Rce1 inhib = yeast Rce1p protease inhibitors, primary screen, biochemical, fluorescence, cell-free homogeneous; 290,000 tested, 0.27% active; yeast membranes, quenched prenylated peptide cleavage fluorescence; CAAX prenyl protease 2 (Saccharomyces cerevisiae (strain ATCC 204508 / S288c)), Q03530; AID 2563, 2010; calls only;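 active = fall in fluorescence gain of 50% or more versus controls, with final raw signal at or below 3038400; inconclusive = same 50% fall but final raw signal above 3038400; inactive = fall in fluorescence gain under 50%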;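 also: plate controls were neutral control wells for no effect and wells lacking membranes for full effect; tested at 10 µM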
# Target sequence (Q03530 whole entry, looked up): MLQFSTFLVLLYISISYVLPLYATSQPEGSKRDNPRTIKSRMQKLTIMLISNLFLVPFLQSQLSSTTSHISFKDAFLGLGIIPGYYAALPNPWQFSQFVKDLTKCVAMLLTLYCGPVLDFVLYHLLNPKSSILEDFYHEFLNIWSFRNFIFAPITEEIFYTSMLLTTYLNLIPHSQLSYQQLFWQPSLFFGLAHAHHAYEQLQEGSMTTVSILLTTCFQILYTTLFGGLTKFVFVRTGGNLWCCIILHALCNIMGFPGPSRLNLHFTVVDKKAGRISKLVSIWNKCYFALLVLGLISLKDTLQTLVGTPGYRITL
# PABP polyA inh = PABP poly(A) RNA binding inhibitors, primary screen, biochemical, fluorescence polarization, uHTS | Polyadenylate-binding protein 1 (Homo sapiens), P11940 | inhibition, % at 35 µM | 290,000 tested, 1% active | AID 2014, 2009;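 active = 50% or more with normal probe brightness, or confirmed in later tests; inconclusive = above 50% with abnormal brightness, or retests that disagree; inactive = below 50% or failed in later tests; about a fifth of its hits are not listed in these tables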;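 also: calls also rest on retests at 20 µM and on dose response follow-up; controls were probe without protein and protein plus probe with vehicle; some compounds called inactive have numbers as strong as hits; many hits fall short of the cut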
# CSC inhib = cancer stem cell viability inhibitors, primary screen, luminescence; cancer stem cell-like cells viability; inhibition, % at 7.5 µM; 300,000 tested, 1.1% active; AID 2717, 2010;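 active = mean at 75% or more and at least half the replicates too; inconclusive = mean and replicates disagree; tested in HMLE shEcad cells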;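 also: 0% = median of negative and 100% = median of positive control wells; the first replicate is given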
# HIV Env fusion = inhibitors of HIV-1 Env-driven cell-cell fusion, primary screen, HeLa-JRFL effector, CEM21 target cells, luciferase | inhibition, % at 12.3 µM | 360,000 tested, 1.1% active;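 active = mean replicate inhibition score of at least 50 and every replicate individually at or above 50; inconclusive = only one of the two criteria met; inactive = mean below 50 and not all replicates reaching 50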;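 also: 0% = plate neutral controls and 100% = maraviroc near 300 nM; one replicate is shown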
# Yeast UUG start = modulators of yeast start codon fidelity, primary screen, whole organism, S. cerevisiae, single point, plate reader. S. cerevisiae UUG-firefly luciferase reporter, luminescence/redox ratio. activity score, % at 18.7 µM. AID 602363, 2012. 350,000 tested, 0.13% active;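 active = replicate mean at a twofold rise or more, about +100% in these data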;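 also: firefly luciferase made from a UUG start codon reports start codon fidelity; reporter light over untreated wells divided by growth signal over untreated wells; some hits fall short of that in this replicate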
# eIF4H FP inh = human eIF4H binding inhibitors, primary screen, translation initiation inhibitor project, biochemical, uHTS, fluorescence polarization. eIF4H fluorescence polarization binding assay. inhibition, % at 35 µM. 290,000 tested, 0.94% active;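 active = 50% or more with normal probe brightness, or confirmed in later tests; inconclusive = above 50% with abnormal brightness, or retests that disagree; inactive = below 50% or failed in later tests; about a fifth of its hits are not listed in these tables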;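 also: calls also rest on retests at 20 µM and on dose response follow-up; 0% = protein and probe with vehicle and 100% = probe without protein; strong numbers were not always called active; many hits fall short of the cut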
# MT1-MMP act inh = blockers of MT1-MMP proenzyme processing, primary screen, HT1080 RFP-PRO-GFP cells, GFP/RFP fluorescence. GFP/RFP ratio fluorescence, overnight; percent of plate control window, DMSO zero. GFP/RFP ratio change, % at 20 µM. 360,000 tested, 0.061% active. Matrix metalloproteinase-14 (Homo sapiens), P50281;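 active = GFP/RFP ratio change of at least 30% with cell ATP level not reduced by more than half and red fluorescence within 50% of control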; also: strong numbers were not always called active
#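 Assay system – RFP-PRO-GFP reporter HT1080 cells · Compound dosing – single dose of 20 µM compound, 1% DMSO final · Incubation – overnight compound exposure at 37 °C · Measure – GFP/RFP fluorescence ratio · Benchmarks – DMSO wells and RFP-L50D-GFP cells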
# eIF4H FP inh retest = further read-out of eIF4H FP inh, marked with its call; inhibition, %; compound at 20 µM; confirmation average;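 mean of two retest wells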
# PABP polyA inh retest = also measured in PABP polyA inh; calls as there; inhibition, %; compound at 20 µM; confirmation repeats;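 mean of two retest wells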
# MT1-MMP act inh RFP = recorded beside MT1-MMP act inh, whose call it bears; RFP signal change, %; measured here: RFP expression control read;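 0 = vehicle wells; hits needed this value within 50% of zero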
# Starred values were filed as active, the others as inactive; i = inactive; ? = inconclusive; · = not tested or not shown; & = joins results of further samples. An excerpt; count on the stated rates, not on these rows.
SMILES,Rce1 inhib,PABP polyA inh,CSC inhib,HIV Env fusion,Yeast UUG start,eIF4H FP inh,MT1-MMP act inh,MT1-MMP act inh RFP,others
COc1cc(/C=C/C(=O)O)cc2c1OCCO2,i,4,-4,-8,·,54,-1,0,eIF4H FP inh retest=46;PABP polyA inh retest=16
O=C(NCc1cccc(C(F)(F)F)c1)C1CC(c2ccc(C(F)(F)F)cc2)=NO1 (stereo unspecified),i,-11,14,23,20,-7,5,1,
Cc1cc(C)n(-c2nc3ccccc3n3nnnc23)n1,i,-9,·,·,-16,-1,-3,-2,
CCN(CC)c1ccc(S(=O)(=O)N2CCOCC2)cc1NC(=O)CSC(=S)N1CCCC1,i,-13,8,-12,1,-12,-4,-5,
COC(=O)c1c(C(=O)OC)c2ccccn2c1C(=O)c1ccc([N+](=O)[O-])cc1,i,6,-9,-5,-5,-10,4,-3,
CCOC(=O)N1CCN(C(=O)CSc2nnc(Cn3c(=O)sc4ccccc43)n2C)CC1,·,12,-20,26,3,0,2,8,
O=C(O)c1ccc(NC(=O)c2ccccc2Br)c(NC(=O)c2ccccc2Br)c1,i,-4,0,5,-10,-4,0,3,
CCN(CC)C(=O)c1c(Cl)nc(C)c([N+](=O)[O-])c1C,i,7,4,-16,-24,2,4,6,
CCc1cc2c(=O)c(-c3cnn(-c4ccccc4)c3)c(C)oc2c(CN2CCCCC2)c1O,i,-2,64,12,-5,-17,-7,-12,
CC(C(=O)NC1CCCCCC1)n1cc([N+](=O)[O-])cn1 (stereo unspecified),i,4,·,11,-5,1,2,3,
O=C(CN1CCOCC1)Nc1cccc(S(=O)(=O)N2CCCCCC2)c1,i,-6,-21,0,·,3,0,0,
O=C(C1=C[C@H](c2ccc(Br)cc2)C[C@H](OCc2ccc(CO)cc2)O1)N1CCN(Cc2ccc3c(c2)OCO3)CC1,i,-1,45,-6,-6,-2,-2,-8,
C#CCN(C(=O)c1cc(COc2ccc(C)c(C)c2)on1)C1CCCCC1,i,-6,2,37,-13,-6,1,-2,
COc1ccccc1N1CCN(C(=O)C(=O)c2c(C)n(C)c3ccccc23)CC1,i,10,-2,7,7,-9,0,0,
FC(F)Oc1ccc(NC(=S)NC2CCSc3ccccc32)cc1 (stereo unspecified),i,9,-14,-5,-15,-4,3,-5,
COc1ccc(-c2ccc([C@H]3[C@H]4C=CC[C@@H](C)[C@@H]4C(=O)N3Cc3ccccc3)c(F)c2)cc1OC,i,-3,38,43,-3,-12,-3,-7,
CCc1nc(SCC(=O)N2c3ccccc3Sc3ccccc32)c2ccccc2n1,i,4,1,-32,-17,-6,-4,-4,
Cn1c(=O)c2[nH]c(Nc3ccccc3)nc2n(C)c1=O,i,0,7,5,-13,-4,-13,-4,
C=CCSc1nc(N)c(C#N)c(-c2ccccc2)c1C#N,i,1,-6,-28,-18,8,4,-2,
COc1ccc(-c2nnn(Cc3nc(N)nc(N4CCCCC4)n3)n2)cc1,i,8,·,·,-19,1,3,0,
Cc1ccc(NC(=O)CN(c2ccc3c(c2)OCO3)S(=O)(=O)c2c(C)n[nH]c2C)cc1,i,12,-6,-16,-7,3,0,-3,
C[C@H](CO)N1C[C@H](C)[C@@H](CN(C)S(=O)(=O)c2ccccc2)Oc2ccc(NC(=O)CCN3CCOCC3)cc2C1=O,·,·,-18,6,-2&-9,·,8,8,
COc1ccc(NC2CCCN(C(=O)CCN3Cc4ccccc4C3=O)C2)cc1 (stereo unspecified),i,-8,-9,17,-7,-12,-2,1,
Cc1ccccc1C(=O)OC1OC(=O)C(Cl)=C1Nc1ccc(C(=O)O)cc1 (stereo unspecified),i,6,-2,-12,·,-4,1,4,
O=C(c1ccco1)N(CCCN1CCOCC1)c1nc(-c2ccc(Cl)cc2)cs1,i,5,6,·,12,0,7,-6,
COC(=O)c1ccnc(SCC(=O)c2ccccc2)c1,i,10,-2,-22,-38,11,2,2,
Cc1cc(C)n2nc(SCC(=O)NC(=O)c3ccccc3)nc2n1,·,·,-18,-14,6,·,3,1,
O=C(NN1C(=O)c2ccccc2NC1c1ccc([N+](=O)[O-])o1)c1ccccc1 (stereo unspecified),i,-7,-11,-3,·,6,-20,-5,
Cc1ccc(S(=O)(=O)NC(CCc2ccccc2)CC(=O)C(C)(C)C)cc1 (stereo unspecified),·,6,4,·,·,0,·,·,
CCOc1ccccc1NC(=O)Cn1c(=O)n(CCC(=O)NC2CCCC2)c(=O)c2ccccc21,i,-2,-8,·,-4,-15,1,-1,
O=C1CCCCC1C(O)c1ccc(Cl)cc1 (stereo unspecified),i,-13,-11,·,·,1,·,·,
NC(=O)CN1N=C(c2cc(Cl)sc2Cl)CSC1=O,i,-5,7,-366,-18,15,1,2,
O=C(Cc1ccccc1)Nc1nc2ccccc2s1,i,6,-1,·,0,4,2,-2,
CCn1c2ccccc2c2nnc(SCC(=O)Nc3c(C)n(C)n(-c4ccccc4)c3=O)nc21,i,8,-12,-14,-10,-11,3,2,
O=C1/C(=C/c2cccs2)SC(=S)N1C1CCS(=O)(=O)C1 (stereo unspecified),i,13,13,-15,·,5,·,·,
CCN(CC)S(=O)(=O)c1cccc(NC(=O)COC(=O)C2=COCCO2)c1,·,·,-15,·,-13,·,1,0,
Cc1cc(NC(=O)CSCC(=O)N(C)Cc2c(F)cccc2Cl)no1,i,·,2,-78,-15,·,0,-5,
O=C(O)Cc1ccc2c(c1)N(S(=O)(=O)c1cccs1)CC(C(=O)O)O2 (stereo unspecified),i,2,-4,·,-4,-8,-1,0,
O=C(N=C1SC2CS(=O)(=O)CC2N1c1cc(Cl)ccc1Cl)C1CCCO1 (stereo unspecified),i,12,-1,-4,·,3,-3,2,
COc1ccc(C(=O)N2CCCC(CCC(=O)NCc3ccc(F)c(F)c3)C2)cc1F (stereo unspecified),i,-2,-8,-2,·,2,-1,-2,
COc1ccc(CN2C3CCC2CC(NC(=O)c2cccc(F)c2)C3)cc1 (stereo unspecified),i,-2,9,-5,0,-7,7,4,
CCOC(=O)C1CCCN(Cc2sccc2C)C1 (stereo unspecified),i,8,-13,·,-9,6,3,1,
Cc1nn(Cc2ccccc2Cl)c2sc(C(=O)NCCCn3ccnc3)cc12,i,-14,55,-8,-4,8,4,0,
OCC[C@@H]1C[C@@H](O)[C@H](O)[C@]2(OCc3ccccc32)O1,i,-3,-1,69*,-18,-20,3,2,
CCOC(=O)CC(=O)Nc1cc(Cl)ccc1O,i,6,7,·,-12,4,2,1,
Nc1nc(-c2ccccc2)[nH]c(=O)c1N=O,i,6,0,10,-15,6,1,4,
O=C(COC(=O)COc1ccccc1)NCc1ccc2c(c1)OCO2,·,·,-11,1,-6,·,-5,0,
O=[N+]([O-])c1ccc(-c2nnc(-c3ccccc3)c(NCCCO)n2)cc1,i,19,3,-20,·,0,3,1,
Cc1ccc(C2(C(F)(F)F)NC(=O)N3C(=C2C#N)Nc2ccccc23)cc1 (stereo unspecified),i,-1,-10,-183,-18,-5,-6,-11,
O=C(Nc1ccc(F)cc1)NC1(C(=O)NCc2ccco2)CCCCC1,i,5,1,-88,-15,-3,9,-7,
O=C(Nc1nc2ccc(SC(F)F)cc2s1)c1ccc2c(c1)S(=O)(=O)c1ccccc1C2=O,i,1,-2,·,·,-1,·,·,
COCc1[nH]nc2c1C1(CCC3(CC1)OCCO3)C(C#N)=C(N)O2,i,7,·,-2,-9,2,-1,1,
Fc1ccc(NC(=S)N2CCN(C/C=C/c3ccccc3)CC2)c(F)c1,i,-4,-4,14,·,-2,1,-6,
O=C(C1CCOCC1)N1CCCC(N2CCN(c3cccc(Cl)c3)CC2)C1 (stereo unspecified),i,-4,10,-3,-14,-13,0,0,
Cc1c(N=CN2CCOCC2)c(=O)n(C)c(=O)n1C,i,10,2,·,-13,-3,-1,3,
CCn1c(SCC(=O)O)nnc1-c1cc2c(C)nn(-c3ccccc3)c2s1,i,16,65,·,-13,-7,4,0,
CCOC(=O)c1c(N)sc(C(=O)N2CCCC(C(N)=O)C2)c1C (stereo unspecified),i,·,3,·,-2,·,-1,0,
O=C(CCN1C(=O)/C(=C/c2cccs2)SC1=S)NNC(=O)c1cccc(O)c1,i,12,25,-6,·,?,-13,-1,
COc1ccc(-c2nc(CS(=O)(=O)CC(=O)NCCc3ccc(C)cc3)c(C)o2)cc1,i,0,1,-7,-18,-1,1,1,

# Ordered by molecular weight (smallest number first): some entries from above
SMILES,Rce1 inhib,PABP polyA inh,CSC inhib,HIV Env fusion,Yeast UUG start,eIF4H FP inh,MT1-MMP act inh,MT1-MMP act inh RFP,others
Nc1nc(-c2ccccc2)[nH]c(=O)c1N=O,i,6,0,10,-15,6,1,4,
CCOC(=O)CC(=O)Nc1cc(Cl)ccc1O,i,6,7,·,-12,4,2,1,
Cc1c(N=CN2CCOCC2)c(=O)n(C)c(=O)n1C,i,10,2,·,-13,-3,-1,3,
COCc1[nH]nc2c1C1(CCC3(CC1)OCCO3)C(C#N)=C(N)O2,i,7,·,-2,-9,2,-1,1,
CCOC(=O)c1c(N)sc(C(=O)N2CCCC(C(N)=O)C2)c1C (stereo unspecified),i,·,3,·,-2,·,-1,0,
O=C(COC(=O)COc1ccccc1)NCc1ccc2c(c1)OCO2,·,·,-11,1,-6,·,-5,0,
O=[N+]([O-])c1ccc(-c2nnc(-c3ccccc3)c(NCCCO)n2)cc1,i,19,3,-20,·,0,3,1,
Cc1ccc(C2(C(F)(F)F)NC(=O)N3C(=C2C#N)Nc2ccccc23)cc1 (stereo unspecified),i,-1,-10,-183,-18,-5,-6,-11,
Fc1ccc(NC(=S)N2CCN(C/C=C/c3ccccc3)CC2)c(F)c1,i,-4,-4,14,·,-2,1,-6,
O=C(C1CCOCC1)N1CCCC(N2CCN(c3cccc(Cl)c3)CC2)C1 (stereo unspecified),i,-4,10,-3,-14,-13,0,0,
CCn1c(SCC(=O)O)nnc1-c1cc2c(C)nn(-c3ccccc3)c2s1,i,16,65,·,-13,-7,4,0,
COc1ccc(-c2nc(CS(=O)(=O)CC(=O)NCCc3ccc(C)cc3)c(C)o2)cc1,i,0,1,-7,-18,-1,1,1,
O=C(Nc1nc2ccc(SC(F)F)cc2s1)c1ccc2c(c1)S(=O)(=O)c1ccccc1C2=O,i,1,-2,·,·,-1,·,·,

# Copied from the entries so far (two entries):
SMILES,Rce1 inhib,PABP polyA inh,CSC inhib,HIV Env fusion,Yeast UUG start,eIF4H FP inh,MT1-MMP act inh,MT1-MMP act inh RFP,others
O=C(CCN1C(=O)/C(=C/c2cccs2)SC1=S)NNC(=O)c1cccc(O)c1,i,12,25,-6,·,?,-13,-1,
COc1ccc(-c2nc(CS(=O)(=O)CC(=O)NCCc3ccc(C)cc3)c(C)o2)cc1,i,0,1,-7,-18,-1,1,1,
